B2AR arrestin = recruits beta-arrestin to the human beta2-adrenergic receptor; beta-arrestin recruitment to beta2AR, cell-based reporter; Potency, µM (highest dose often 46.1 µM), inactives show top-dose activation, actives largely listed as activators; actives 0.02% (n = 330,000);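 also: potency is read from the fitted curve at half-maximal effect; 0% = DMSO controls and full agonism = EC100 isoproterenol or metaproterenol; nearly all actives have a fitted effect of over 65% in size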
GALK inh = inhibitors of human galactokinase | P51570 | Purified GALK, Kinase-Glo residual ATP luminescence | Potency, µM (highest dose often 57.5 µM), for inactives: top-dose activity change, negative = inhibition, most hits filed as inhibitors | actives 0.007% (n = 270,000) | AID 1868; also: potency is read from the fitted curve at half-maximal effect; % is scaled to controls: 0 for no effect and ±100 for the full control effect
Target sequence (P51570 whole entry, looked up): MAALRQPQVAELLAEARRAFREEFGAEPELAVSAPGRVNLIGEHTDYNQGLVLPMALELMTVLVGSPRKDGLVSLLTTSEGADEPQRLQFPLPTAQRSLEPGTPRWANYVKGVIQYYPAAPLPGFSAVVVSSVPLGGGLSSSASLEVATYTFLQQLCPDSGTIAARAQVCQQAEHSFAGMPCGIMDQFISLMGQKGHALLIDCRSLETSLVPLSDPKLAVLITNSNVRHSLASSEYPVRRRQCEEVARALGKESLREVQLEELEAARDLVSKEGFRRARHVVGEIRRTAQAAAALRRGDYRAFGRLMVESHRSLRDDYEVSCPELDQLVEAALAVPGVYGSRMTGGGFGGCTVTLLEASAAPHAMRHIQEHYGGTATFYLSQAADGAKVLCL
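ATP-depletion format; final 35 uM ATP, 100 uM D-galactose, 5 nM enzyme; pH 8.0 HEPES/Mg2+ buffer; 60 min RT; luminescence read 10 min after detection reagent.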
PTAP TSG101 blk = blocks PTAP/TSG101 interaction to inhibit HIV-1 budding; Potency, µM (series often up to 115 µM), for the others: top-dose activity change, negative = inhibition, most hits filed as inhibitors; Q99816; 340,000 tested, under 10 active; Fluorescence polarization, FITC-PTAP peptide / Tsg101 binding; active = well fitted inhibition curve with a large enough effect in the main read-out, with a control signal flat, not every such curve was filed as active; inconclusive = small, poorly fitted or top-dose-only effect, or effect the other way, or a change in a side signal; inactive = no such curve, though single readings can be large or run the other way; also: potency is read from the fitted curve at half-maximal effect; % of control where 0% means no effect
Target sequence (Q99816 whole entry, looked up): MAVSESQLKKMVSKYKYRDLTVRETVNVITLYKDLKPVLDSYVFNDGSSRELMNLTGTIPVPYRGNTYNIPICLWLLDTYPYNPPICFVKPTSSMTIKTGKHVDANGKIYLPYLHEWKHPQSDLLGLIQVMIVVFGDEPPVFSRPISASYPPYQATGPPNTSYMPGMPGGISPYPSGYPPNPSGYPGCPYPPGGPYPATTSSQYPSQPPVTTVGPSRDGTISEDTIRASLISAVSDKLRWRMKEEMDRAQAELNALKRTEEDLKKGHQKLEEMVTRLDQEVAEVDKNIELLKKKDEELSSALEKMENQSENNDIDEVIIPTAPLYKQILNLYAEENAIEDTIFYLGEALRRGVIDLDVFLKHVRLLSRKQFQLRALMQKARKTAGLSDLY
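Fluorescence polarization binding of Tsg101 binding domain (10 uM final) to FITC-labeled PTAP peptide (50 nM final) in HEPES pH 7.5 buffer with NaCl, Tween 20, EDTA, TCEP. Compounds added before peptide; binding 20 min at RT.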
Menin-MLL TR inh = displaces Texas Red mutant MLL peptide from human menin; Menin + Texas Red MLL mutant peptide, fluorescence polarization; Potency, µM (doses to about 61.6 µM), inactives show at the highest dose FP activity change, negative = inhibition, most hits filed as inhibitors; actives 0.23% (n = 270,000); AID 1768; active = well fitted inhibition curve with a large enough effect in the polarisation, with a control signal flat, not every such curve was filed as active; inconclusive = small, poorly fitted or top-dose-only effect, or effect the other way, or a change in a side signal; inactive = no such curve, though single readings can be large or run the other way; the % refers to the polarisation; also: potency is read from the fitted curve at half-maximal effect; % of control where 0% means no effect; many of its hits are not listed in these tables
Giardia killer = kills Giardia lamblia. Giardia lamblia trophozoite viability. activity change, % at 7.66 µM, hits read low. actives 0.15% (n = 340,000); in the data active = activity change below about -80%; inconclusive = between about -30% and that limit;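 also: parasites exposed to compound for two days anaerobically before the ATP read; % is scaled to controls: 0 for no effect and ±100 for the full control effect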
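Trophozoites 100 cells/well + cpd; 48 hrs, 37 deg C, anaerobic. ATPLite 1-Step added, 15-30 min RT, luminescence read (ATP-based viability).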
Integrin act MD = integrin-mediated muscular dystrophy alleviation activation; alpha7betagal myoblasts, beta-gal FDG fluorescence, 48 h; actives 0.064% (n = 350,000); Potency, µM (highest dose often 38.3 µM), without a hit: top-dose activation, usual class: activators; AID 624291;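 also: potency is read from the fitted curve at half-maximal effect; 100% = response of the positive control SU9516; nearly all actives have a fitted effect of over 60% in size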
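Alpha7betagal+/- myoblasts (passage 13) were plated 16-24 hr, then exposed to compounds (1:260 dilution of DMSO stock) for 48 hours at 37C. After MPER lysis, β-galactosidase reporter activity was read as FDG fluorescence (ex 480/em 540) after 30 minutes.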
Coupling enz = coupling enzyme interference in Giardia aldolase counter-screen | coupling enzyme system counterscreen, AmpLite Red fluorescence | activity change, negative = inhibition, % at 58.2 µM, hits read low | actives 0.67% (n = 290,000); in the data active = activity change below about -30%; also: % is scaled to controls: 0 for no effect and ±100 for the full control effect
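Counterscreen lacking aldolase: glyceraldehyde-3-phosphate coupling-enzyme reagent preincubated 10 min at RT with compound (at 57.5 uM final), then substrate/coupling system with AmpLite Red added; fluorescence read at 525/598 nm after 20 min RT.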
Chronic BCR inh = blocks chronic active B-cell receptor signaling; ABC-DLBCL IkBa-CBG/CBR reporter, luminescence ratio, 4 h; Potency, µM (top dose mostly 46.1 µM), inactives show top-dose ratio change, negative = lower green/red ratio, usual class: inhibitors; actives 0.05% (n = 340,000); active = well fitted inhibition curve with a large enough effect in the signal ratio, with a control signal flat, not every such curve was filed as active; inconclusive = small, poorly fitted or top-dose-only effect, or effect the other way, or a change in a side signal; the % refers to the signal ratio;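 also: potency is read from the fitted curve at half-maximal effect; plate controls were basal doxycycline-induced cells for no effect and cells given 10 µM MG132 for full effect; MG132 reads +100%, hits lower the ratio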
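Compounds up to 46 uM were incubated four hours with TMD8 cells whose green CBG68 luciferase is fused to IkappaBalpha; red CBR luminescence normalised the signal, and concentration-effect curves were fitted to fusion, red and ratio data.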
Tb PFK inh = T. brucei PFK enzyme inhibition | T. brucei PFK, ADP-Glo luminescence | Potency, µM (highest dose often 57.5 µM), without a hit: top-dose activity, negative = inhibition, most hits filed as inhibitors | actives 0.17% (n = 330,000) | AID 485367;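 also: potency is read from the fitted curve at half-maximal effect; 0% = uninhibited 1x PFK enzyme wells and -100% = no-enzyme wells; nearly all actives have a fitted effect of over 60% in size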
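Activity is normalized to no-enzyme wells (full inhibition) and 1.25 nM enzyme wells (no inhibition). Reaction: 0.5 mM F6P, 0.1 mM ATP, 45 min RT, ADP-Glo luminescence; concentration-response curves fitted and classed by quality.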
* = called active by the depositor; u = inconclusive; x = not tested or not shown; [ ] = remark or other dose. Unless noted, calls follow the shape of the dose curve; as a rule, active = well fitted curve in the direction sought with a large enough effect; inconclusive = small, poorly fitted or top-dose-only effect, or another doubt; inactive = no such curve, though single readings can be large; an effect the other way counts as inactive or inconclusive. Some of the compounds tested. The share of hits here may be higher or lower than overall.

compound | PTAP TSG101 blk | Giardia killer | B2AR arrestin | Tb PFK inh | Coupling enz | GALK inh | Integrin act MD | Menin-MLL TR inh | Chronic BCR inh
CCCC(C(=O)c1ccccc1)n1cncn1 (stereo not given) | -3% | -2 | -0.1% | -3% | 3 | -7% | 7% | 6% | 11%
COc1cc(OC)c(Nc2cc(C)nc3nc(C)nn23)cc1Cl | -1% | -5 | 0.0% | 0% | 2 | -7% | -7% | -9% | -21%
O=C(NCCN1CCN(c2ccccc2)CC1)C1CCN(S(=O)(=O)c2cccs2)CC1 | -3% | 3 | 0.0% | 1% | 3 | -1% | 6% | 21% | 0%
Cn1c(SCC(=O)Nc2ccc3c(c2)OCCO3)nnc1-c1ccccn1 | 0% | 9 | -0.4% | 14% | 0 | -5% | -12%[7.66 µM] | 0% | -1%
CCCCNC(=O)CC1N=C2c3ccccc3N=C(SCC(=O)Nc3ccccc3C)N2C1=O (stereo not given) | 0% | 11 | -0.3% | 5% | 9 | 3% | -7% | -19% | u
COc1ccc(-c2cnc(SCC(=O)Nc3ccc4c(c3)OCO4)n2Cc2ccco2)cc1 | 1% | -17 | 4.6% | 1% | 0 | 2% | -35% | 4% | u
COc1ccc(C(=O)Nc2nncs2)c(OC)c1 | -3% | u | -0.1% | 0% | 2 | 0% | 3% | -3% | 14%
Cc1nc2ncnn2c(C)c1CCC(=O)N1CCOCC1 | -1% | 2 | -0.3% | -3% | 5 | 2% | 17% | -6% | -2%
COc1cc(C2C(C(=O)c3ccco3)=C(O)C(=O)N2Cc2cccnc2)cc(OC)c1OC (stereo not given) | 1% | -4 | -0.8% | 7% | 1 | 0% | -10% | 25% | 2%
CC(C)CC(C(=O)NCc1ccccn1)N1C(=O)c2ccccc2C1=O (stereo not given) | 0% | -13 | -0.1% | 0% | 2 | 9% | -10% | -4% | 0%
Cc1oc2c(CN(C)C)c(O)ccc2c(=O)c1-c1cscn1 | 1% | -3 | 0.2% | -3% | -1 | -1% | 12% | 5% | 1%
O=C1NCCCC1C(=O)NCCNC(=O)C(F)(F)F (stereo not given) | -7% | -3 | -0.1% | -2% | 2 | 2% | 31% | 2% | 0%
Cc1ccc(C(C)NC(=O)c2c(C)noc2C)cc1C (stereo not given) | -2% | 8 | -0.9% | -7% | -1 | 0% | -2% | -1% | u
CC(C)c1ccc(O)c(NC(=O)c2cncc(Br)c2)c1 | 5% | 0 | -0.8% | -5% | -1 | 3% | 18% | 49%[activator] | 9%
Cc1c(NC(=O)CC(O)(C(F)(F)F)C(F)(F)F)c(=O)n(-c2ccccc2)n1C | -8% | -5 | -0.3% | -7% | 0 | 0% | -16% | 5% | -2%
CCC1Oc2ccc(C)cc2N(CC(=O)NCc2ccccc2OC)C1=O (stereo not given) | -5% | -1 | 0.0% | 1% | -11 | 8% | u | x | u
Fc1ccc(OCc2nn3c(Cn4nnc5ccccc54)nnc3s2)cc1 | -8% | -6 | 0.0% | -7% | 0 | 2% | -8% | 4% | -2%
CC(C)CC(c1nnnn1CC1CCCO1)N1CCN(c2nc3ccccc3s2)CC1 (stereo not given) | 0% | 6 | -0.1% | 0% | 2 | 6% | -16% | -26% | -2%
CCSc1nnc(-c2ccc(S(=O)(=O)N3CCOCC3)cc2)n1CC1CCCO1 (stereo not given) | -5% | 39[activator] | -0.2% | 3% | 0 | 8% | 15% | 0% | 2%
CCN(Cc1ccccc1)Cc1cc(OC)cc(OC)c1 | -4% | 37[activator] | -1.0% | 2% | -1 | -3% | -7% | -4% | 1%
COC(=O)c1cc(Br)c(=O)n(CCN2CCOCC2)c1 | -4% | 6 | -0.4% | -2% | 0 | -2% | -3% | 4% | 3%
O=C(CSc1nnc(-c2ccc(O)cc2)o1)N1CCOCC1 | -9% | 1 | -0.3% | 1% | 1 | 2% | -11% | -11% | u
O=C(NC(C(=O)c1ccccc1)n1ccc(=O)[nH]c1=O)c1ccccc1 (stereo not given) | -4% | 6 | -0.4% | -12% | 3 | -2% | 3% | 13% | u
C=C(C)Cn1c(CCNC(=O)C(C)(C)C)nc2ccccc21 | -8% | 6 | -0.4% | 11% | 6 | -1% | -3% | 2% | u
CCn1cc(C(=O)NCc2cccs2)c(=O)c2ccc(C)nc21 | -4% | -6 | -0.4% | 5% | -4 | 1% | 15% | u | 4%
COC(=O)C1CCN(Cc2cc(=O)oc3cc(OC)ccc23)CC1 | 0% | -6 | 0.2% | -3% | 5 | -1% | 12% | -20% | 7%
CCOc1ccc2nc(SCC#N)c(C#N)cc2c1 | -6% | -25 | -0.1% | -16% | 1 | 1% | 14% | 39%[activator] | u
CCn1c2ccccc2c2nnc(SCC(=O)c3ccccc3)nc21 | -7% | 6 | -0.2% | -6% | 0 | 1% | -10%[7.66 µM] | 29% | 8%
CCOC(=O)N1CCN(CC(=O)Nc2c(C(=O)OC)[nH]c3ccc(Cl)cc23)CC1 | 0% | -2 | 0.1% | -3% | -3 | 0% | -15% | 27% | 3%
O=C1CC(NC23CC4CC(CC(C4)C2)C3)C(=O)N1c1ccc2c(c1)OCO2 (stereo not given) | -1% | -6 | -0.3% | -2% | 2 | -1% | -3% | -8% | u
CC(C)CC(c1nnnn1C(C)C)N1CCN(c2cccc(Cl)c2)CC1 (stereo not given) | -7% | 3 | -1.8% | 2% | -2 | 2% | -33% | -5% | u
CCC(=O)N(Cc1cc(=O)[nH]c2ccccc12)c1cccc(C)c1 | -2% | -6 | -0.2% | 6% | 4 | 0% | -8% | 14% | u
Oc1c(CN2CCOCC2)cc(-c2ccccc2)cc1CN1CCOCC1 | -2% | 5 | 0.1% | 0% | 0 | -1% | -14% | x | -4%
CCCCCn1c(CNC(=O)CCC)nc2ccccc21 | -5% | 22 | 0.1% | 0% | -1 | 1% | 12% | -14% | 8%
COc1ccc(Cn2nnnc2C(c2cc3cc(C)cc(C)c3[nH]c2=O)N2CCOCC2)cc1 (stereo not given) | x | -5 | -0.1% | 0% | -6 | 0% | 5% | -1% | 10%
CC(=O)NCCOc1c(C)cc(S(N)(=O)=O)cc1C | -3% | 13 | -0.1% | 5% | 4 | 1% | 2% | -9% | 3%
C#CCn1c(=NC(=O)c2cccs2)sc2cccc(OC)c21 | -9% | u | 0.3% | -16% | 0 | 3% | -20% | u | u
O=c1cc(-c2cccc3ccccc23)[nH][nH]1 | -2% | -8 | -0.6% | 1% | 2 | 1% | 8% | -4% | -6%
CCCNC(=O)c1cc(-c2ccco2)on1 | -12% | 25 | -0.1% | -4% | -3 | 1% | 0% | 1% | u
COc1ccc(-c2nc(NC(=O)c3cc(C(C)(C)C)nn3C)sc2C)cc1 | -3% | -4 | -0.8% | 2% | -4 | 1% | -44% | 2% | u
Cc1ccccc1NS(=O)(=O)c1ccc(F)cc1 | 2% | 9 | -0.2% | 2% | -3 | 0% | 0% | 21% | 6%
Cc1scc(C(=O)Nn2cnnc2)c1-c1ccccc1 | x | 7 | -0.1% | 15% | -2 | 0% | 32% | 1% | 30%
Cn1c(N2CCOCC2)nc(-c2ccccc2)c1-c1ccccc1 | -10% | -2 | 3.8% | 0% | 4 | 6% | -14% | -11% | 1%
O=C(COc1ccc2ccccc2c1)N1CCCC1 | -4% | -3 | 0.1% | -12% | -10 | -2% | 8% | -28% | u
O=C(NCc1ccccc1)c1cc(S(=O)(=O)N2CCOCC2)ccc1F | -1% | 14 | -0.2% | -3% | 1 | -2% | 9% | -10% | 9%

3 entries out of the list, sorted by SMILES length, rising.
compound | PTAP TSG101 blk | Giardia killer | B2AR arrestin | Tb PFK inh | Coupling enz | GALK inh | Integrin act MD | Menin-MLL TR inh | Chronic BCR inh
CCCNC(=O)c1cc(-c2ccco2)on1 | -12% | 25 | -0.1% | -4% | -3 | 1% | 0% | 1% | u
C#CCn1c(=NC(=O)c2cccs2)sc2cccc(OC)c21 | -9% | u | 0.3% | -16% | 0 | 3% | -20% | u | u
COc1ccc(Cn2nnnc2C(c2cc3cc(C)cc(C)c3[nH]c2=O)N2CCOCC2)cc1 (stereo not given) | x | -5 | -0.1% | 0% | -6 | 0% | 5% | -1% | 10%

(listing goes on)
compound | PTAP TSG101 blk | Giardia killer | B2AR arrestin | Tb PFK inh | Coupling enz | GALK inh | Integrin act MD | Menin-MLL TR inh | Chronic BCR inh
CC(=O)SCCC(=O)N1C(C)CCCC1C(=O)O (stereo not given) | -2% | 2 | -0.6% | 4% | 0 | 0% | 16% | -8% | -1%
Cc1ccccc1NC(=O)Nc1cccs1 | -1% | -5 | -0.1% | -4% | 0 | -3% | -44% | 10% | u
COc1ccccc1CNC(=O)Nc1cccs1 | 0% | 22 | 0.1% | 0% | 3 | -5% | -35% | 24% | -6%
c1ccc(OCCN2C3=NCCN3c3ccccc32)cc1 | 0% | 6 | -1.0% | 21µM* | -1 | 3% | 3% | -6% | -1%
CCOC(=O)C1CCN(C(=O)CC2C(=O)N(Cc3ccccc3)C(C)c3nc4ccccc4n32)CC1 (stereo not given) | x | -2 | -0.1% | 2% | -1 | -3% | -16% | -10% | 4%
Cc1ccc(CNC(=O)C2CNc3cc(C)ccc3O2)cc1 (stereo not given) | -3% | -6 | -0.2% | -4% | -5 | -3% | 16% | -2% | 9%
CCc1nnc(SCc2cn3c(C)cc(C)nc3n2)n1N | 0% | 9 | -0.2% | -1% | -3 | 3% | 4% | -20% | 6%
O=C(Cc1cccs1)OCC(=O)c1ccco1 | -3% | 20 | 0.0% | -6% | 2 | 6% | 0% | 2% | u

Compound activity: PubChem, National Center for Advancing Translational Sciences (NCATS)
